NPYLR7 ag = agonists of mosquito NPYLR7 receptor, primary screen, cell-based, Aedes aegypti, calcium fluorescence, mosquito biting behavior. activation, % at 10 µM. 270,000 tested, 0.15% active. HEK293T NPYLR7/Galpha15, GCaMP6s calcium fluorescence; in the data active = activation above about 40%;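 note: 0% = vehicle and 100% = reference agonist at the receptor; some compounds past the cut are filed as inactive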
NPYLR7 ag max-min = also measured in NPYLR7 ag; calls as there; activation, %; measured here: Max-Min RFU normalised activation; some inactives read as strong as hits;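 span of the calcium signal over five minutes; 0% = vehicle and 100% = native peptide agonist; compound fluorescence can raise it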
Starred values were filed as active, the others as inactive; & = joins results of further samples.

What do the screens show for `COCc1cc(C(=O)Nc2ncnc3ccccc23)no1`?
NPYLR7 ag: 1; NPYLR7 ag max-min: -1

How did Cc1nc2n(n1)C(=O)C(C(c1ccccc1Cl)N1CCCC(C)C1)S2 (configuration not stated) do in these assays?
NPYLR7 ag: 2; NPYLR7 ag max-min: 0

Results for COc1ccc(-c2noc(-c3c(SC)nn(CC(=O)Nc4ccc(C)c(Cl)c4)c3N)n2)cc1 ?
NPYLR7 ag: 1; NPYLR7 ag max-min: -8

How did COCCCN1CCC(NC(=O)N2CC(C)CCC2C)CC1 (configuration not stated) do in these assays?
NPYLR7 ag: -2; NPYLR7 ag max-min: -2

What do the screens show for `CCOC(=O)C1CCN(C(=O)C(C)OC(=O)c2ccc3[nH]c4c(c3c2)CC(C)CC4)CC1` (configuration not stated)?
NPYLR7 ag: 3; NPYLR7 ag max-min: 9

Results for COCCN1CC(C(=O)NCCCc2ccc(F)cc2)CCC1=O (configuration not stated) ?
NPYLR7 ag: 1; NPYLR7 ag max-min: -3

Results for CCC1(CC)NC(=O)N(CC(O)COc2ccc(Br)cc2)C1=O (configuration not stated) ?
NPYLR7 ag: 7; NPYLR7 ag max-min: 11

How did Cc1cccc(CNC2CC(=O)N(Cc3cccc4ccccc34)C2)n1 (configuration not stated) do in these assays?
NPYLR7 ag: 12; NPYLR7 ag max-min: 12

What do the screens show for `Cc1nn(-c2nnc(-n3nc(C)c(Cl)c3C)nn2)c(C)c1Cl`?
NPYLR7 ag: 8; NPYLR7 ag max-min: 6

How did CC1(C(=O)Nc2ccccc2Br)CCN1C(=O)Cc1ccc(Cl)cc1Cl (configuration not stated) do in these assays?
NPYLR7 ag: 0; NPYLR7 ag max-min: 0

What do the screens show for `CCCC1NC(=O)N(Cc2nnc(-c3ccc(Br)o3)o2)C1=O` (configuration not stated)?
NPYLR7 ag: 3; NPYLR7 ag max-min: -2

Results for OC1CCC(Nc2ncnc3ccccc23)CC1 (configuration not stated) ?
NPYLR7 ag: 3; NPYLR7 ag max-min: 0

What do the screens show for `O=C(c1cccc(-n2cccn2)c1)N(C/C=C/c1ccccc1)CCO`?
NPYLR7 ag: 19; NPYLR7 ag max-min: 6

Results for CCc1nccn1CCC(=O)N1CCC(c2nn(C)c(=O)n2CC)CC1 ?
NPYLR7 ag: 14; NPYLR7 ag max-min: 14

What do the screens show for `Cn1cnnc1SCc1cc(=O)c(OCc2cccc(F)c2)co1`?
NPYLR7 ag: 12; NPYLR7 ag max-min: 7

In the list so far, two contain an aryl thioether with sulfur outside any ring.
Results for COc1ccc(-c2noc(-c3c(SC)nn(CC(=O)Nc4ccc(C)c(Cl)c4)c3N)n2)cc1 ?
NPYLR7 ag: 1; NPYLR7 ag max-min: -8

What do the screens show for `Cn1cnnc1SCc1cc(=O)c(OCc2cccc(F)c2)co1`?
NPYLR7 ag: 12; NPYLR7 ag max-min: 7

Going on with the list.
Results for CC(=O)Nc1ccc(N2C(=O)C3C4CC(C(Br)C4Br)C3C2=O)cc1 (configuration not stated) ?
NPYLR7 ag: 3; NPYLR7 ag max-min: -2

How did COCCN(C)C(=O)c1cc(COc2cc(C)c(Cl)c(C)c2)on1 do in these assays?
NPYLR7 ag: -5; NPYLR7 ag max-min: -6

How did CC1=CC(C)(C)Nc2cc(C)c(C)cc21 do in these assays?
NPYLR7 ag: 5; NPYLR7 ag max-min: 4

Results for CCc1cnc(C)nc1N1CCC2(CC1)Nc1ccccc1NC2=O ?
NPYLR7 ag: -3; NPYLR7 ag max-min: -5

How did Cc1nnc(SCCNC(=O)c2cc(C3CC3)[nH]n2)s1 do in these assays?
NPYLR7 ag: 4; NPYLR7 ag max-min: 2

Results for COc1cc(C(NC(=O)c2ccco2)NC(=O)c2ccco2)ccc1OCc1ccccc1 ?
NPYLR7 ag: 1; NPYLR7 ag max-min: 1

Results for Cc1ccc(-n2ncc3c(C)nn(CC(=O)Nc4ccc(F)cc4)c(=O)c32)c(C)c1 ?
NPYLR7 ag: 1; NPYLR7 ag max-min: 1

How did O=C(NC1CCCCC1)c1cc2n(n1)CCN(Cc1ccccc1C(F)(F)F)C2=O do in these assays?
NPYLR7 ag: 15; NPYLR7 ag max-min: 15

Results for Cc1cc(C(=O)NN=Cc2c(C)nc3sccn23)c(C)o1 ?
NPYLR7 ag: 0; NPYLR7 ag max-min: -5

What do the screens show for `CCc1cccc(CC)c1N(C(C)=O)c1nc(C=C(C#N)C#N)cs1`?
NPYLR7 ag: 10; NPYLR7 ag max-min: 7

How did CCSc1nnc(NC(=O)c2ccc(C)c([N+](=O)[O-])c2)s1 do in these assays?
NPYLR7 ag: 4; NPYLR7 ag max-min: 2

Results for N#Cc1ccc(-c2nc3ccc(C(=O)N4C[C@H](O)C[C@H]4C(=O)OCc4ccccc4)cc3[nH]2)cc1 ?
NPYLR7 ag: 0; NPYLR7 ag max-min: 2

What do the screens show for `COCCOC(=NCc1ccco1)NC(=O)c1cccs1`?
NPYLR7 ag: 4; NPYLR7 ag max-min: 9

Results for COC(=O)[C@@H]1C[C@@H](O)CN1C(=O)CCc1c[nH]c2ccccc12 ?
NPYLR7 ag: 18; NPYLR7 ag max-min: 2

Results for CCCCNC(=O)C1(C)CCN1C(=O)c1cc2ccccc2s1 (configuration not stated) ?
NPYLR7 ag: 0; NPYLR7 ag max-min: -3

Results for Cc1nn(-c2ccccc2)c(C)c1C(=O)NC(C)C ?
NPYLR7 ag: -4; NPYLR7 ag max-min: 13

What do the screens show for `COC(=O)c1c(C)c(C(=O)CN(CC2CCCO2)C(=O)COc2ccccc2)c(C)n1C` (configuration not stated)?
NPYLR7 ag: 8; NPYLR7 ag max-min: 15

Results for Cc1ccc(-n2nc(C(C)(C)C)cc2N)c(C)c1 ?
NPYLR7 ag: 10; NPYLR7 ag max-min: 3

Results for Cc1[nH]c2ccc(Cl)cc2c1CCNC(=O)c1cn(C2CCCCC2)nn1 ?
NPYLR7 ag: 11; NPYLR7 ag max-min: 1

What do the screens show for `CCCCc1ccc(C(=O)Oc2ccc(-c3nc4ccccn4c3NC3CCCCC3)cc2OC)cc1`?
NPYLR7 ag: 7; NPYLR7 ag max-min: 4

What do the screens show for `CN(CC1CCCCO1)C(=O)c1cc(I)c[nH]1` (configuration not stated)?
NPYLR7 ag: -3; NPYLR7 ag max-min: 2

What do the screens show for `CCCn1c(=O)c2c(nc3n(CCCl)c(C)c(C)n23)n(C)c1=O`?
NPYLR7 ag: 3; NPYLR7 ag max-min: 3

Results for CCC(C(=O)N1CCC(n2c(C)nc3cc(C(F)(F)F)ccc32)CC1)c1ccccc1 (configuration not stated) ?
NPYLR7 ag: 2; NPYLR7 ag max-min: -1

Results for CC(c1cccc(-c2nc3ccccc3n2CCO)c1)N1CCCC1 (configuration not stated) ?
NPYLR7 ag: 4; NPYLR7 ag max-min: 3

Results for COc1ccc(NC2=NCCC2)cc1 ?
NPYLR7 ag: 3; NPYLR7 ag max-min: 0

Results for Cc1ccc2nc(C)c(C)c(C(=O)NCCN(C)S(C)(=O)=O)c2c1 ?
NPYLR7 ag: 2; NPYLR7 ag max-min: 2

Results for CCNC(=O)Nc1ccc(N(C)C)c(CN(Cc2ccc(F)cc2)C(=O)c2cccc(C)c2)c1 ?
NPYLR7 ag: 2; NPYLR7 ag max-min: 15

Results for CN(Cc1ccc2nonc2c1)C(=O)c1cc(COc2ccc(F)cc2Cl)on1 ?
NPYLR7 ag: 9; NPYLR7 ag max-min: 3

Results for CCOC(=O)c1sc(C)c2c(=O)[nH]nnc12 ?
NPYLR7 ag: -6; NPYLR7 ag max-min: -6

Results for N#CCSc1nnnn1Cc1ccco1 ?
NPYLR7 ag: 14; NPYLR7 ag max-min: 7

By substructure: those above with a CF3 group.
How did O=C(NC1CCCCC1)c1cc2n(n1)CCN(Cc1ccccc1C(F)(F)F)C2=O do in these assays?
NPYLR7 ag: 15; NPYLR7 ag max-min: 15

Results for CCC(C(=O)N1CCC(n2c(C)nc3cc(C(F)(F)F)ccc32)CC1)c1ccccc1 (configuration not stated) ?
NPYLR7 ag: 2; NPYLR7 ag max-min: -1

Among those listed so far, 7 have an NH in an aromatic ring.
What do the screens show for `CCOC(=O)C1CCN(C(=O)C(C)OC(=O)c2ccc3[nH]c4c(c3c2)CC(C)CC4)CC1` (configuration not stated)?
NPYLR7 ag: 3; NPYLR7 ag max-min: 9

How did Cc1nnc(SCCNC(=O)c2cc(C3CC3)[nH]n2)s1 do in these assays?
NPYLR7 ag: 4; NPYLR7 ag max-min: 2

Results for N#Cc1ccc(-c2nc3ccc(C(=O)N4C[C@H](O)C[C@H]4C(=O)OCc4ccccc4)cc3[nH]2)cc1 ?
NPYLR7 ag: 0; NPYLR7 ag max-min: 2

Results for COC(=O)[C@@H]1C[C@@H](O)CN1C(=O)CCc1c[nH]c2ccccc12 ?
NPYLR7 ag: 18; NPYLR7 ag max-min: 2

Results for Cc1[nH]c2ccc(Cl)cc2c1CCNC(=O)c1cn(C2CCCCC2)nn1 ?
NPYLR7 ag: 11; NPYLR7 ag max-min: 1

What do the screens show for `CN(CC1CCCCO1)C(=O)c1cc(I)c[nH]1` (configuration not stated)?
NPYLR7 ag: -3; NPYLR7 ag max-min: 2

Results for CCOC(=O)c1sc(C)c2c(=O)[nH]nnc12 ?
NPYLR7 ag: -6; NPYLR7 ag max-min: -6

(cont.)
What do the screens show for `CNC(=O)c1ccc(NC(=O)N(C)C(C)c2ccccc2Cl)c(C)c1` (configuration not stated)?
NPYLR7 ag: -3; NPYLR7 ag max-min: -5

Results for CSc1sc(SC)c(COC(C)=O)c1COC(C)=O ?
NPYLR7 ag: 0; NPYLR7 ag max-min: 6

What do the screens show for `Cc1ccc2c(c1)c1c3n2CC(O)CN=C3CCC1` (configuration not stated)?
NPYLR7 ag: -1; NPYLR7 ag max-min: -3

Results for CCC[n+]1ccc2ccccc2c1Cc1ccccc1 ?
NPYLR7 ag: -14; NPYLR7 ag max-min: -17

Results for CN(Cc1nc2c(s1)CCCC2)CC(O)c1ccc(C#N)cc1 (configuration not stated) ?
NPYLR7 ag: -20&5; NPYLR7 ag max-min: -23&2

What do the screens show for `CCOC(=O)C1(CCCc2ccccc2)CCCN(C(=O)c2cccnc2C)C1` (configuration not stated)?
NPYLR7 ag: -3; NPYLR7 ag max-min: -7

How did O=c1[nH]cc(S(=O)(=O)N2CCN(C/C=C/c3ccccc3)CC2)c(=O)[nH]1 do in these assays?
NPYLR7 ag: -11; NPYLR7 ag max-min: -16

How did CCC(CC)NCc1cccnc1Oc1ccccc1 do in these assays?
NPYLR7 ag: 4; NPYLR7 ag max-min: 3

How did CC(=O)Cn1c(C(C)(C)C)cn2c3c(=O)n(C)c(=O)n(C)c3nc12 do in these assays?
NPYLR7 ag: -5; NPYLR7 ag max-min: -8

What do the screens show for `CCOC(=O)C1=C(COC(=O)CCC(=O)c2ccc(C)s2)NC(=O)NC1C` (configuration not stated)?
NPYLR7 ag: -1; NPYLR7 ag max-min: 17

Results for Cc1ccc(S(C)(=O)=O)cc1C(=O)NC(C)CCc1ccco1 (configuration not stated) ?
NPYLR7 ag: 2; NPYLR7 ag max-min: -2

How did O=c1[nH]cc(S(=O)(=O)Nc2cccc3ccccc23)c(=O)[nH]1 do in these assays?
NPYLR7 ag: -10; NPYLR7 ag max-min: -16

How did O=C(c1cc2cc(Cl)ccc2o1)N1CCN(S(=O)(=O)c2ccccc2Cl)CC1 do in these assays?
NPYLR7 ag: 3; NPYLR7 ag max-min: 10

What do the screens show for `CCOc1nc(-c2ccc(C)cc2)n(-c2ccc(NC(=O)COc3ccccc3)cc2)n1`?
NPYLR7 ag: 1; NPYLR7 ag max-min: 3

What do the screens show for `COc1cc2c(cc1CN1CCC(N3CCCC3=O)CC1)OCO2`?
NPYLR7 ag: 2; NPYLR7 ag max-min: 2

What do the screens show for `CCOc1ccc(NC(=O)Cc2csc(NC(=O)c3ccc[nH]c3=O)n2)cc1`?
NPYLR7 ag: -2; NPYLR7 ag max-min: 3

How did CC1(C(=O)Nc2cccc3c2CCCC3)CCN1C(=O)Cc1ccccc1Cl (configuration not stated) do in these assays?
NPYLR7 ag: -2; NPYLR7 ag max-min: -3

How did Cc1ccc(O)c(CN2CCC(c3cc(C(C)C)n[nH]3)CC2)n1 do in these assays?
NPYLR7 ag: -1; NPYLR7 ag max-min: -4

Results for CCOC(=O)c1nn(-c2ccc(C)cc2)c(=O)c2c(NC(=O)CCCc3ccccc3)scc12 ?
NPYLR7 ag: -12; NPYLR7 ag max-min: -10

Results for O=C(Nc1ccccc1)C1CCN(C(=O)c2cc3ccccc3oc2=O)CC1 ?
NPYLR7 ag: -17; NPYLR7 ag max-min: -16

Results for CC(C)Cc1ccc(C(=O)N2CCCC(N3CCC(CO)CC3)C2)cc1 (configuration not stated) ?
NPYLR7 ag: 2; NPYLR7 ag max-min: -2

Results for CCOC(=O)C1=C(C)NC(=O)NC1c1ccc(OCCO)c(OC)c1 (configuration not stated) ?
NPYLR7 ag: -2; NPYLR7 ag max-min: -6

How did CCc1nc2ccc(C(=O)NCCN3CCNC3=O)cn2c1N(C)CCC(C)C do in these assays?
NPYLR7 ag: -4; NPYLR7 ag max-min: -9

How did Cc1cc(C(=O)NC(C)C2CCCO2)c(C)n1-c1ccccn1 (configuration not stated) do in these assays?
NPYLR7 ag: 16; NPYLR7 ag max-min: 10

Results for CC(C)(C)c1n[nH]c(C2CN(C(=O)C3CCOC3)CCO2)n1 (configuration not stated) ?
NPYLR7 ag: 0; NPYLR7 ag max-min: 50

Results for C=C(C)CN1CCN(c2nc3c(c(=O)[nH]c(=O)n3C)n2Cc2ccccc2C)CC1 ?
NPYLR7 ag: 1; NPYLR7 ag max-min: 7

How did COc1cccc(-c2cc(-c3ccc(C(=O)NCc4ccco4)cc3)[nH]n2)c1 do in these assays?
NPYLR7 ag: -3; NPYLR7 ag max-min: -1

Results for O=C(COc1ccc(C(=O)c2ccccc2)cc1)NC1CCN(Cc2ccccc2)CC1 ?
NPYLR7 ag: -1; NPYLR7 ag max-min: -8

How did Cc1ccccc1CNCc1cn(-c2ccccc2)nc1-c1ccc2c(c1)OCO2 do in these assays?
NPYLR7 ag: -1; NPYLR7 ag max-min: -5

How did O=C(CSc1nc(=O)n2cc(Cl)ccc2n1)Nc1ccc(OC(F)(F)F)cc1 do in these assays?
NPYLR7 ag: 8; NPYLR7 ag max-min: 4

Some of the compounds tested; count on the stated rates, not on these rows.
